HSV replic up – HSV replication enhancement; HSV replication augmentation in cells, fold increase; maximum fold increase; 220,000 tested, 0.005% active; AID 1956;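 active = peak rise of 1.5-fold or more in the series; tested in PC3 cells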;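 note: first round at 10 µM; read as green reporter fluorescence; hits show the peak of a series up to 25 µM; 1 = signal of infected wells without compound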
INS promoter inh – TRM-6 insulin promoter activity inhibition | 130,000 tested, 0.9% active | TRM-6 cells (human fetal islet line), insulin promoter-eGFP reporter, imaging; reporter expression induced with tamoxifen | inhibition, % at 2 µM;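 active = inhibition above the mean plus 3 SD, with well images judged a real hit on visual review, cut at about 60% in these data, passing the limit was not always enough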
PKD1 kinase inh – PKD1 (human) kinase inhibition; 200,000 tested, 0.056% active; inhibition, %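 (about 10 µM by stock and volumes)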; PKD1 kinase fluorescence polarization assay;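 active = inhibition of 50% or more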;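 note: controls were vehicle for no effect and a reference inhibitor for full effect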
RGS16-Gao HTS – regulators of human RGS16-Galphao interaction; 220,000 tested, 0.38% active; AID 1441; binding response (% of control), % at 10 µM; bead-based flow cytometry RGS16-Galphao binding, fluorescence; actives lie on both sides;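 active = below 25% or above 175%, edge rows of some plates excepted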;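 note: Galphao activated by GDP with aluminum fluoride before binding; 100% = wells without compound and 0% = beads without RGS; some results beyond the cut were filed as inactive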
Target sequence (O15492 whole entry, looked up): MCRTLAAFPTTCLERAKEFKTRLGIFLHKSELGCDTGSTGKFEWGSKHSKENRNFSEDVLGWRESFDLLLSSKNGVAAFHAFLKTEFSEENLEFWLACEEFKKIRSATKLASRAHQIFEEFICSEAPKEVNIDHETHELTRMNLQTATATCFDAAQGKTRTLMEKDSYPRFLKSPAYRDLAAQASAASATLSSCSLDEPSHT
Target sequence (P09471 whole entry, looked up): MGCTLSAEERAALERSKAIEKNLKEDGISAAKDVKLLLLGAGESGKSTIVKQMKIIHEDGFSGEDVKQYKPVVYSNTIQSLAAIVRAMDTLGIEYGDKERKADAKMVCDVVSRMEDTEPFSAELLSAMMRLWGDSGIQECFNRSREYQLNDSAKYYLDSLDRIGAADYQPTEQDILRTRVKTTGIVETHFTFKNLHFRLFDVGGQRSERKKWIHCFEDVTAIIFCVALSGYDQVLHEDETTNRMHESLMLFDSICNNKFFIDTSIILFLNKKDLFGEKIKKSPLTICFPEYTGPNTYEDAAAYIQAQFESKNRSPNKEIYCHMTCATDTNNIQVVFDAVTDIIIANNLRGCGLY
GALR2 agonist – activates the human galanin receptor 2 | 140,000 tested, 0.48% active | O43603 | AID 803 | activation, %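 (tested at 5 µM)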 | GALR2-expressing cells, agonist activation read-out;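 active = above mean plus 3 SD of all compounds, about 5% in these data, not always enough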;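 note: 0% = vehicle buffer wells and 100% = reference agonist at full effect; tested in CHO reporter cells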
Target sequence (O43603 whole entry, looked up): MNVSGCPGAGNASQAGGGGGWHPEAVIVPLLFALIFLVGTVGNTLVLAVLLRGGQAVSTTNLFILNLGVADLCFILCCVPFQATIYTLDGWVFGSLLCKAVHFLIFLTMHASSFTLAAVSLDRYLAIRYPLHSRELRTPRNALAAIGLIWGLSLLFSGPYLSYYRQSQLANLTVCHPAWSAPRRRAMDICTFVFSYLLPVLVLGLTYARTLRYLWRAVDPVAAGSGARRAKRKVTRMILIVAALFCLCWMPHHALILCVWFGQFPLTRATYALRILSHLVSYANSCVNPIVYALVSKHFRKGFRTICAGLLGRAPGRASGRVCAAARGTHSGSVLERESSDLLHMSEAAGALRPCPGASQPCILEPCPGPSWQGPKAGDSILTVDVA
INS promoter inh cell count – second read-out of INS promoter inh, no call of its own (marks repeat the call); normalized cell count, %; measured here: cell count, toxicity; reference of the scale not given here;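 cells exposed to compound for 48 h; stained nuclei by imaging scaled within each plate; lower means fewer cells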
HSV replic up primary fold – also measured in HSV replic up; calls as there; fold increase; compound at 10 µM; measured here: primary screen fold increase 10 uM; tested in PC3 cells;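 GFP signal in the first replicate; 1 = infected wells without compound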
Starred values were filed as active, the others as inactive; i = inactive; nt = no result given.

Every second line gives: HSV replic up, HSV replic up primary fold, INS promoter inh, INS promoter inh cell count, PKD1 kinase inh, RGS16-Gao HTS, GALR2 agonist
- CN(C)/C=C(\C=O)c1onc(-c2ccccc2Cl)c1C#N
    i, 1.1, 13, 98, 3, 96, nt
- CC(C)OC(=O)c1ccc(NC(=O)c2ccco2)cc1
    i, 0.88, 10, 100, -9, 100, -1.3
- CCC(=O)Nc1ccc(C=C(C(C)=O)C(C)=O)cc1
    i, 0.89, nt, nt, nt, 108, nt
- COc1ccccc1NC(=O)N1CCN(c2ccc3nnc(-c4ccc(F)cc4)n3n2)CC1
    i, 0.92, nt, nt, nt, 103, nt
- CCOc1ccc(N2C(=O)CC(N3CCN(C4CCc5ccccc5C4)CC3)C2=O)cc1 (configuration not stated)
    i, 0.85, -10, 101, 2, 102, -0.9
- CCc1cc(C(c2ccccn2)N2CCN(C)CC2)c(NC(=O)c2ccccc2)s1 (configuration not stated)
    nt, nt, nt, nt, -2, 119, -1.6
- CCOC(=O)C1=C(c2ccccc2)OC(N)=C(C#N)C1c1ccncc1 (configuration not stated)
    i, 0.93, nt, nt, 0, 102, nt
- COc1ccc(-c2noc(CCC(=O)Nc3cc(OC)ccc3OC)n2)cc1
    i, 0.74, 20, 51, 3, 104, -2.1
- CC(OC(=O)CCc1nc2ccccc2c(=O)[nH]1)C(=O)Nc1ncc(Cl)cc1Cl (configuration not stated)
    i, 0.88, nt, nt, -6, 98, nt
- COC(=O)c1ccc(C(NC(=O)OCc2ccccc2)/C(F)=C/[C@@H](C)C(=O)NCc2ccc(-c3ccccc3)cc2)cc1 (some centres not stated)
    i, 0.91, 29, 132, 0, 103, -0.9
- O=C(Nc1ccc(N2CCN(C(=O)c3cccs3)CC2)cc1)c1cccnc1
    i, 1, nt, nt, 9, 108, nt
- COc1ccc(Oc2coc3cc(OC(=O)N4CCOCC4)ccc3c2=O)cc1
    i, 0.81, 18, 136, -1, 84, -3.4
- CCOc1ccc(CCNC(=O)C2=C(C)C(=O)OC23CCC(C)CC3)cc1 (configuration not stated)
    i, 1.1, -40, 114, -6, 97, -2.1
- COC(=O)c1cc(Br)ccc1OC(=O)c1cccnc1
    i, 0.9, nt, nt, 12, 108, -2.3
- COC(=O)c1ccc(/C=N/NC(=S)NC(C)C)cc1
    i, 0.93, nt, nt, nt, 96, nt
- O=C(NCc1ccc(Cl)cc1)c1noc2c1CCCCC2
    i, 0.92, nt, nt, -1, 103, -1.6
- CCOc1ccc(C(CC(=O)O)NC(=O)C(Sc2ccccc2)c2ccccc2)cc1 (configuration not stated)
    i, 0.91, 30, 78, 6, 97, nt
- C=CCN(CC=C)CC(O)Cn1c2ccccc2c2ccccc21 (configuration not stated)
    i, 1.1, -91, 103, -13, 100, -1.4
- COC(=O)c1ccccc1NC(=O)COC(=O)c1cccnc1
    i, 0.83, nt, nt, 4, 104, -0.5
- C/C=C/C(=O)Nc1ccc(N2CCN(c3ccc(C(F)(F)F)cn3)CC2)nc1
    i, 0.88, nt, nt, nt, 100, nt
- N#Cc1nc(-c2cccs2)oc1NCc1ccco1
    i, 0.81, -39, 115, -11, 95, -3.4
- CCOC(=O)C1CCCN(Cc2c(Cl)cccc2Cl)C1 (configuration not stated)
    i, 1.1, 55, 138, -5, 97, -0.8
- COc1ccc(CNc2ccc3c(c2)ncn3-c2ccccc2OC)cc1
    i, 0.81, -51, 199, 2, 104, -1.6
- N#CCN1CCN(CC(=O)Nc2ccc(OCc3ccccc3)cc2)CC1
    i, 0.98, 24, 60, 3, 101, 0.3
- O=P(O)(O)c1ccccc1OCCCCCOc1ccccc1P(=O)(O)O
    i, 0.91, 9, 63, 2, 106, -1.6
- CCOC(=O)C1C(C#N)=C(N)OC(C)=C1c1ccncc1 (configuration not stated)
    i, 0.99, -3, 79, 1, 98, -3.1
- COc1ccc(N2CCCn3c2nc2c3c(=O)n(Cc3ccccc3)c(=O)n2C)c(OC)c1
    i, 0.86, 11, 138, 1, 101, nt
- COc1cc(C2CC(=O)NC3=C2C(=O)CC(C)(C)C3)ccc1O (configuration not stated)
    i, 0.98, 57, 102, -2, 102, -1.4
- NNC(=O)c1ccc(N2CCc3ccccc32)c([N+](=O)[O-])c1
    i, 0.91, nt, nt, -2, 101, nt
- CN(C(=O)COC(=O)CNC(=O)CNC(=O)c1ccc(Cl)cc1Cl)c1ccccc1
    i, 1.2, nt, nt, 4, 100, nt
- Brc1ccc(C2=Nn3c(nnc3-c3cccnc3)SC2)s1
    i, 1, nt, nt, 1, 107, -0.6
- O=C(NC1CCCCC1)c1ccc(CNc2nc(=S)[nH]c3ccccc23)cc1
    i, 0.89, 29, 99, -8, 102, nt
- CCOC(=O)N1CCC(NC(=O)CN2C(=O)CCSc3ccccc32)CC1
    i, 0.91, -114, 32, -3, 101, -0.4
- COc1ccc(NC(=O)c2cc(SC)ccc2Cl)cc1
    i, 0.85, nt, nt, 0, 103, -1.5
- COc1cc(C(=O)NNC2=CC(=O)CC(C)(C)C2)cc(OC)c1OC
    i, 0.9, nt, nt, 4, 90, -1.0
- COc1ccc(S(=O)(=O)Oc2ccc3c(c2)O/C(=C\c2cccnc2)C3=O)cc1
    i, 1, 0, 108, -5, 99, -0.5
- CC1(C)CNC(=O)C=C(c2ccccc2)C1
    i, 0.94, 0, 56, -8, 107, -0.3
- CC(=O)Nc1ccc(S(=O)(=O)N2CCN(CC(=O)NC3CCCC3)CC2)cc1
    i, 0.97, nt, nt, 4, 101, -3.3
- Cc1cc(C)c2cc(CN(CC3CCCO3)C(=O)NC3CCCCC3)c(=O)[nH]c2c1 (configuration not stated)
    nt, nt, 41, 156, 2, nt, -2.0
- CCOc1ccccc1OCCCOc1ccc([N+](=O)[O-])cc1Cl
    i, 1, 3, 138, -7, 90, -0.9
- CS(=O)(=O)Nc1ccc2c(c1)nc1n2CCOC1
    i, 0.94, nt, nt, -5, 53, -1.3
- Cc1ncn(-c2ccc(C(=O)Oc3ccccc3)cn2)n1
    i, 0.97, nt, nt, 2, 104, nt
- O=C(COc1ccc(Br)cc1)N1CCCCCC1
    i, 0.95, nt, nt, -10, nt, 0.7
- O=C(Nc1ccc(Cl)cc1)Nc1ccc(N2CCOCC2)cc1
    i, 0.9, nt, nt, -5, 99, -1.8
- O=C(C1CC12CCCC2)N1CCC(CO)(Cc2ccccc2Cl)CC1 (configuration not stated)
    i, 0.87, 30, 100, 4, 109, nt
- COc1ccc(C(=O)NCCSCc2ccccc2C)cc1
    i, 0.77, 11, 60, -10, 99, -2.4
- CCn1c(COc2cc(C)cc(C)c2)nnc1SCC(=O)N1CCN(c2ccccc2)CC1
    i, 1, nt, nt, -3, 101, -2.0
- CC1=C(C)C(OCCBr)N(c2cc(O)c(Cl)cc2F)C1=O (configuration not stated)
    i, 1.1, nt, nt, nt, 86, nt
- C=CCN(CC=C)C(=O)C[n+]1ccc(C(N)=O)cc1
    i, 0.98, nt, nt, nt, 97, nt
- O=C(CCCn1c(=O)c2sccc2n(Cc2ccc(F)cc2)c1=O)NCc1ccco1
    i, 0.81, 10, 61, -15, 100, 0.9
- CCCCN(C(=S)SC)C1CCS(=O)(=O)C1 (configuration not stated)
    i, 0.93, nt, nt, nt, 101, nt
- CCC(=O)NC(=S)NNC(=O)c1ccccc1[N+](=O)[O-]
    i, 0.92, -13, 125, -13, 100, nt
- COc1ccc(C2CC(c3ccccc3)=NN2C(=S)Nc2ccccc2)cc1 (configuration not stated)
    i, 1, -42, 179, -9, 104, nt
- O=C(NCc1ccc2c(c1)OCO2)c1ccc(CN2CCc3ccccc3C2)cc1
    i, 0.99, 27, 111, -9, 141, -3.5
- Cc1occc1C(=O)NNC(=O)c1ccc(F)cc1
    i, 1.1, nt, nt, 1, 99, -2.6
- O=C(Nc1ccc(O)c2c(=O)cc(-c3ccccc3Cl)oc12)c1ccc(Cl)cc1Cl
    i, 0.93, nt, nt, nt, 89, nt
- COCCCn1c(=N)c(C(=O)NCC2CCCO2)cc2c(=O)n3cccc(C)c3nc21 (configuration not stated)
    i, 1, nt, nt, -3, 135, 2.1
- Cc1onc(-c2c(Cl)cccc2Cl)c1C(=O)Nc1ccc2c(c1)OCCO2
    i, 1.1, 6, 90, -19, 107, -1.0
- CCCCCC(C)n1[nH]c(=O)c2c(C)cc(C)nc21 (configuration not stated)
    i, 0.85, nt, nt, -5, 96, -2.8
- CCC(C(=O)NC(C)(C)C)N(C(=O)Cn1nnc(-c2ccccc2F)n1)c1cnc2ccccc2c1 (configuration not stated)
    i, 0.96, -33, 141, -7, 101, nt

The list continues.
Every second line gives: HSV replic up, HSV replic up primary fold, INS promoter inh, INS promoter inh cell count, PKD1 kinase inh, RGS16-Gao HTS, GALR2 agonist
- CC(C)CC(=O)NC(NC(=S)Nc1sc2c(c1C#N)CCCC2)C(Cl)(Cl)Cl (configuration not stated)
    i, 0.85, 13, 85, 2, 96, -1.0
- CCCc1cc(=O)[nH]c(SCC(=O)Nc2cc(C)on2)n1
    i, 0.95, -29, 49, -7, 102, nt
- OCCN(Cc1ccccc1)CC(O)COc1ccc(-c2ccccc2)cc1 (configuration not stated)
    i, 1, 5, 117, -5, 100, nt
- COc1ccc(-c2ncccc2OC(=O)C23CC4CC(CC(C4)C2)C3)cc1
    i, 1.2, nt, nt, -2, 82, -1.0
- O=C(Nc1ccc(N2CCOCC2)c(Cl)c1)c1cc2ccccc2o1
    i, 0.89, -31, 126, 3, 107, -1.2
- Cc1ccc2cccc(SCC(=O)N3CCOCC3)c2n1
    i, 0.93, -2, 53, -10, 104, -0.9
- CN(C)S(=O)(=O)c1cccc(NC(=S)N/N=C/C(=O)c2ccccc2)c1
    i, 0.99, 33, 154, -8, 101, 0.2
- CC1(c2ccccc2)NC(=O)N(CCN2C(=O)c3ccccc3C2=O)C1=O (configuration not stated)
    i, 1.1, nt, nt, 2, 105, 0.4
- O=C(Nc1ccc(F)cc1F)N1CCCC(c2nc(-c3ccc(F)cc3)no2)C1 (configuration not stated)
    i, 1.1, -15, 77, 4, 103, nt
- Cn1c(Cc2ccccc2)nnc1SCC(=O)Nc1ccccc1N1CCOCC1
    i, 0.89, -44, 75, -12, 99, 0.8
- O=C(Cc1ccc([N+](=O)[O-])cc1)NCc1ccncc1
    i, 0.9, nt, nt, 11, 98, nt
- Cn1cccc1CC(=O)NNC(=S)NC(=O)c1ccccc1Br
    i, 0.99, -61, 150, 0, 102, nt
- COc1ccccc1N=CC=C1OC(C)(C)C(C)(C)O1
    i, 0.88, 15, 98, 4, 97, nt
- C=CCn1c(SCC(=O)Nc2ccccc2C)nnc1-c1ccncc1
    i, 1, -33, 178, 6, 104, -1.8
- CC(CCc1ccccc1)NC(=O)C(=O)NCCc1ccccc1 (configuration not stated)
    i, 1, -21, 79, -5, 35, 1.7
- CCN1CCN(c2ncc(C(=O)Nc3cc(Cl)c(OC)cc3OC)c3ccccc23)CC1
    i, 0.66, -69, 69, -4, 105, 0.1
- COC(=O)Nc1nnc(COc2cccc(C)c2)s1
    i, 1, 31, 80, 3, 108, nt
- CC1=NOC(=O)/C1=C\c1ccc(-c2cc(Cl)ccc2Cl)o1
    i, 0.95, 28, 107, 2, 61, -3.7
- Cc1ccccc1-n1c(O)c(/C=N/N2CCCCC2c2cccnc2)c(=O)[nH]c1=O (configuration not stated)
    i, 1.1, 48, 64, -2, 102, -0.7
- COC(=O)CSc1nc2c(c(-c3ccco3)c1C#N)CCCC2
    i, 1.1, nt, nt, 12, 97, 1.6
- O=C(N/N=C/c1ccc(OCc2ccccc2)cc1)c1ccco1
    i, 0.97, nt, nt, nt, 93, nt
- COc1cc(C(CCN2CCCC(C)C2)c2c(OC)cc(OC)c3c(-c4ccccc4)cc(=O)oc23)cc(OC)c1OC (configuration not stated)
    i, 0.67, nt, nt, nt, 99, nt
- CCN(CC(=O)Nc1c(F)cccc1F)C(=O)COc1ccc2c(C)cc(=O)oc2c1
    i, 1, -57, 74, -8, 102, nt
- Cn1c(=O)c2ccccc2n(Cc2ccccc2F)c1=O
    i, 1, -53, 52, -12, 97, -0.2
- CCN1C=C(Cc2ccc(F)cc2)C2=C(C1)C(c1ccc(F)cc1)C(C#N)=C(N)O2 (configuration not stated)
    i, 1, 36, 94, -8, 46, 0.1

In the list so far, four have a nitro group on carbon.
Every second line gives: HSV replic up, HSV replic up primary fold, INS promoter inh, INS promoter inh cell count, PKD1 kinase inh, RGS16-Gao HTS, GALR2 agonist
- NNC(=O)c1ccc(N2CCc3ccccc32)c([N+](=O)[O-])c1
    i, 0.91, nt, nt, -2, 101, nt
- CCOc1ccccc1OCCCOc1ccc([N+](=O)[O-])cc1Cl
    i, 1, 3, 138, -7, 90, -0.9
- CCC(=O)NC(=S)NNC(=O)c1ccccc1[N+](=O)[O-]
    i, 0.92, -13, 125, -13, 100, nt
- O=C(Cc1ccc([N+](=O)[O-])cc1)NCc1ccncc1
    i, 0.9, nt, nt, 11, 98, nt

Screens as filed in PubChem BioAssay.
